Source: PubChem
MgrA-DNA mod: S. aureus MgrA-DNA binding modulation | fluorescence polarization | inhibition, %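 (about 10 µg/mL by stock and volumes)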 | 84,000 tested, 0.13% active | AID 602314;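 active = above 50% in either of two replicates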;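 also: 0% = protein plus DNA without compound and 100% = DNA alone without protein; higher means less MgrA bound to DNA so lower polarization; one replicate is shown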
S aureus helic: S. aureus DNA helicase inhibition; purified S. aureus helicase, fluorescence unwinding assay; about half of the hits fall short of the stated cut; inhibition, %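 (tested at about 80 µM)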; 120,000 tested, 0.05% active;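 active = both duplicates at 50% or more, or one of them with a favoured structure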;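 also: 0% = mean of negative control wells and 100% = mean of positive control wells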
Starred values were filed as active, the others as inactive; · = not tested or not shown. A portion of the library. The share of hits here may be higher or lower than overall.

molecule	MgrA-DNA mod	S aureus helic
CCC1CCCCN1C(=O)CSc1ncc(-c2ccc(F)cc2)n1CC (stereo not drawn)	-3.2	12
O=C1OC(/C=C/c2ccc(Cl)cc2)=NC/1=C/c1ccco1	·	15
CC(C)(C)c1ccc(N=Cc2ccccn2)cc1	-0.8	4
O=C(O)CC(C(=O)O)N1C(=O)/C(=C\c2ccco2)SC1=S (stereo not drawn)	·	5
N#Cc1ccsc1NC(=O)c1coc2ccccc2c1=O	·	-19
Cc1cc(N2CCCC(O)C2)nc(C)n1 (stereo not drawn)	-2.0	12
O=C(OCCSc1cnc2ccccc2n1)c1cc(Cl)cc(Cl)c1	-6.0	·
Cc1cc(-c2ccco2)n(CC(=O)NCCCc2ccccc2)n1	·	5
Cc1ccccc1NC(=O)Cn1c(NCC(C)O)nc2ccccc21 (stereo not drawn)	-2.0	-15
COc1ccc(C2=NNC(=O)CC2)cc1	·	23
O=C1N=c2ccccc2=C/C1=C/c1sc(=S)n(Cc2ccccc2)c1O	-3.4	-40
Cc1cc(Nc2ccccc2O)c2ccccc2n1	-2.1	17
CCC1(C)Cc2ccccc2-c2c1c(=O)n(Cc1ccccc1)c1nnnn21 (stereo not drawn)	3.8	12
COc1ccc(CNC(=O)c2c(C)oc3c2cc(OC(C)=O)c2ccccc23)cc1	-5.0	13
O=c1nc(SCc2ccccc2)c2c(n1Cc1cccnc1)CCC2	·	-15
Cn1nc(C(=O)N2CCCCCC2)c2ccccc2c1=O	·	-1
Fc1ccc(NC(=S)NC2CCCCCCCCCCC2)cc1	-0.6	·
CCc1ccccc1Nc1nc(N)nc(CSc2ccc(F)cc2)n1	·	-7
CC(C)(C)C(C)(C)O	·	23
Cc1oc2c(c1C(=O)Nc1ccc(I)cc1)CCCC2	0.8	5
C=CCn1c(SCC(=O)c2ccccc2)nc2ccccc21	·	-7
Oc1c(C=NCc2ccccc2)[nH]c2ccccc12	·	-91
Cc1c(Sc2ccc(Cl)cc2)cnn1C(=O)Nc1cccc(C(F)(F)F)c1	-0.6	·
CCOc1ccc(NS(=O)(=O)c2ccc3c(c2)N(C(C)=O)CCO3)cc1	·	-20
COc1ccc(C2C(C(=O)O)=C(C)OC2c2ccccc2)cc1 (stereo not drawn)	4.3	14
Cc1[nH]c2ccc(Cl)cc2c(=O)c1CN1CCCC(C)C1 (stereo not drawn)	·	-26
O=C(Cc1csc(Nc2ccc(Cl)cc2)n1)NCc1ccccc1	·	11
CCN(CC)S(=O)(=O)c1ccc(C(=O)Nc2ncn(Cc3ccccc3)n2)cc1	·	3
CCCC(c1nnnn1C(C)(C)C)N(Cc1ccco1)Cc1cc2ccc(C)cc2[nH]c1=O (stereo not drawn)	1.5	-1
COc1ccc(/C=C2\SC(=S)N(C(CC(=O)O)C(=O)O)C2=O)cc1 (stereo not drawn)	-0.1	·
COc1ccc2[nH]c3c(=O)n(/N=C/c4ccccc4)cnc3c2c1	-4.2	9
CCn1c(C(=O)N2CCCC(C(=O)O)C2)cc2sccc21 (stereo not drawn)	-2.8	13
COc1ccc(C(C(C#N)C#N)C2C(=O)N(Cc3ccccc3)N=C2C)cc1 (stereo not drawn)	0.3	-1
CC(=O)Nc1ccccc1NC(=O)C(C)C	-0.1	9
CCOC(=O)C1=C(C)NC(C)=C(C(=O)OCC)C1c1ccc(-c2cc(C(F)(F)F)cc(C(F)(F)F)c2)o1	-1.2	·
Cc1cccc(NC(=O)CS(=O)(=O)c2c[nH]c3ccccc23)c1C	·	16
CCn1nccc1C(=O)O	-3.2	-1
O=C(CCCSc1nnc(-c2cccs2)n1CC1CCCO1)c1ccccc1 (stereo not drawn)	·	-4
O=C1c2ccccc2C(=O)C1(c1ccccc1)N1CCN(c2ccccc2)CC1	·	-9
COc1ccccc1C(=O)NCC(=O)Nc1ccc(-c2nnc3n2CCCCC3)cc1	·	15
CCC(=O)NC(c1ccco1)c1cc(Cl)c2cccnc2c1O (stereo not drawn)	6.9	5
CN(C(=O)c1noc2c1CCCC2)c1ccccc1Cl	·	9
CC(C)(C)c1cc(C(=O)CSc2nnnn2-c2ccccc2)cc(C(C)(C)C)c1O	·	14
CCOC(=O)CCC(C#N)(c1ccc(Cl)cc1)N1CCOCC1 (stereo not drawn)	2.6	·
CC(=O)c1ccc(C#Cc2ccccc2)s1	-0.5	·
NN(CCc1ccncc1)C1=NS(=O)(=O)c2ccccc21	·	-21
Cc1ccc(S(=O)(=O)N(O)c2ccc(Cl)cc2)cc1	-7.5	14
O=c1oc(-c2ccc(Cl)cc2)nnc1-c1ccccc1	-0.5	·
CCNc1ncnc2c1cnn2-c1ccc(C)cc1	·	9
CCCCn1c(CCC(=O)O)nc2cc(S(=O)(=O)N3CCOCC3)ccc21	·	21
CCNC(=O)c1ccccc1NC(=O)c1cccc(S(=O)(=O)N2CCCC2)c1	0.1	0
O=C(CCC(=O)c1ccc(F)cc1)OC1CCOC1=O (stereo not drawn)	·	-3
O=C(NC1CC(=O)N(c2ccccc2)C1)N1CCN(C(=O)c2ccco2)CC1 (stereo not drawn)	·	-14
O=C1/C(=C\c2ccc(OC(F)F)cc2OC(F)F)Oc2cc(O)ccc21	·	-203
O=C(CCn1c(=O)sc2ccccc21)NCCCc1ccccc1	-1.6	12
CCSc1nc(O)cc(=O)n1-c1ccc(OC)cc1	·	9
C=CCn1c(SCC#N)nc2c(c1=O)C1(CCCCC1)Cc1ccccc1-2	·	29
CCC(Sc1nc2c(c(=O)[nH]1)CCC2)C(=O)Nc1cccc(OC)c1 (stereo not drawn)	-1.4	17
COCC(=O)Oc1ccc2c(C)c(Cc3ccc(F)cc3)c(=O)oc2c1	-0.3	·
CC1=C(C(=O)N2CCOCC2)C(c2ccc3c(c2)OCCO3)NC(=S)N1 (stereo not drawn)	·	7

A draw from above in order of number of heavy atoms, ascending:
molecule	MgrA-DNA mod	S aureus helic
Cc1ccccc1NC(=O)Cn1c(NCC(C)O)nc2ccccc21 (stereo not drawn)	-2.0	-15
CCOc1ccc(NS(=O)(=O)c2ccc3c(c2)N(C(C)=O)CCO3)cc1	·	-20
Cc1c(Sc2ccc(Cl)cc2)cnn1C(=O)Nc1cccc(C(F)(F)F)c1	-0.6	·
COc1ccccc1C(=O)NCC(=O)Nc1ccc(-c2nnc3n2CCCCC3)cc1	·	15
CCCC(c1nnnn1C(C)(C)C)N(Cc1ccco1)Cc1cc2ccc(C)cc2[nH]c1=O (stereo not drawn)	1.5	-1

(further entries)
molecule	MgrA-DNA mod	S aureus helic
COc1ccc(CCn2c(NCc3ccco3)nc3c2c(=O)[nH]c(=O)n3C)cc1	-2.0	4
O=C(COC(=O)C1(c2ccccc2F)CCCC1)N1CCCCC1	0.8	0
Cc1cccc(C)c1NC(=O)COC(=O)Cn1nnc(-c2ccccc2)n1	·	-12
CC(C)(C)CC(=O)Nc1cccc2c1CCCC2	0.1	13
CC(Sc1nc2ccccc2n1C)C(=O)Nc1ncc(Cl)cc1Cl (stereo not drawn)	·	-7
Cc1cccc(OCC(=O)N(Cc2ccco2)Cc2ccco2)c1	·	-38
COC(=O)NCc1ccc(CNC(=O)OC)cc1	·	29
CC(C)c1nc2ccccc2[nH]1	-4.0	·
C=CCn1c2ccccc2c2nnc(SCC(=O)NC3=NN=C(c4ccccc4)CS3)nc21	2.3	10
CN(C)c1cccc(C(=O)OCc2ccc(C#N)cc2)c1	·	6
OCc1nc(-c2cccc(C(F)(F)F)c2)cs1	-0.8	·
O=C(CCCCCCCCCCCCC1CCCC1)Nc1ccc(S(=O)(=O)c2ccc(NC(=O)CCCCCCCCCCCCC3CCCC3)cc2)cc1	-0.9	·

Profiles from above. Screens in order: MgrA-DNA mod | S aureus helic
CN(C)c1cccc(C(=O)OCc2ccc(C#N)cc2)c1 is listed with · | 6
COC(=O)NCc1ccc(CNC(=O)OC)cc1 is listed with · | 29
CC(C)c1nc2ccccc2[nH]1 is listed with -4.0 | ·
Cc1cccc(C)c1NC(=O)COC(=O)Cn1nnc(-c2ccccc2)n1 is listed with · | -12
CC(C)(C)CC(=O)Nc1cccc2c1CCCC2 is listed with 0.1 | 13

Next part:
molecule	MgrA-DNA mod	S aureus helic
COc1ccc(C2c3cc(OC)c(OC)cc3CCN2C(C)=O)cc1OC (stereo not drawn)	·	-16
COc1ccc(C(O)c2nccn2C)cc1OC (stereo not drawn)	·	-5
CC(=O)/C(=N\O)c1ccccc1	-1.5	·
CC1CCc2cc(F)ccc2N1C(=O)CCC(=O)O (stereo not drawn)	·	-4
O=C(COC(=O)c1cccnc1Cl)NC12CC3CC(CC(C3)C1)C2	-1.6	-17
COC(=O)C1CCN(C(c2ccc(OC)cc2)c2sc3ncnn3c2O)CC1 (stereo not drawn)	·	6
N#Cc1ccc(OCC(=O)Nc2ccncc2)cc1	-7.7	-36
S=C(NCCCN1CCOCC1)Nc1ccccc1	1.4	7
CCCn1c(SCc2nc(-c3ccc(OC)cc3)no2)nnc1-c1ccncc1	1.0	-12
CCC(=O)Nc1nc(-c2ccc(Cl)c(Cl)c2)nc2c1c(=O)oc1ccccc12	·	10
O=C(NC(=S)Nc1ccccc1)c1ccco1	-5.3	2
N#C/C(=C\N1CCc2ccccc21)S(=O)(=O)Cc1ccco1	-2.2	·
CCOc1ccc(N(CC)C(=O)C2CCCN(S(=O)(=O)c3cccc4nsnc34)C2)cc1 (stereo not drawn)	·	37
O=C1Nc2ccc(Cl)cc2C12SCCS2	-1.5	18
CC(C)(C)C(=O)Cc1nc(O)cs1	-0.2	·
O=C(CN1CCC(C(=O)Nc2ccccc2)CC1)Nc1cc(C(F)(F)F)ccc1-n1cncn1	·	-6
O=C(OCc1csc(-c2ccccc2)n1)c1ccccc1	0.2	-6
N#Cc1c(F)cccc1NC(=O)C1CCCCC1	-0.9	·
COc1ccccc1OCc1nnc(SCC(=O)N(C)C)o1	0.3	4
CCC(N)C12CC3CC(CC(O)(C3)C1)C2 (stereo not drawn)	·	-1
Cc1cc(C)n(-c2nc3cc(Cl)ccc3nc2Nc2ccc3c(c2)n(C)c(=O)n3C)n1	·	-91
c1ccc(Cn2nnnc2-c2ccco2)cc1	3.5	-23
CC(=O)Nc1ccsc1C(=O)O	4.8	·
CCCCOC(=O)Nc1cc(C)ccc1C	1.4	4
COc1ccc(C2=C/C(=C(/C#N)C(=O)NCc3ccco3)c3cc(C)ccc3O2)cc1	·	-331
Cc1cc(C)c2c(CC(=O)Nc3sc4c(c3C(=O)NCC3CCCO3)CCC4)coc2c1 (stereo not drawn)	0.3	-12
CCOC(=O)c1ccc(OCc2nc(-c3ccc(OC)c(OC)c3)no2)cc1	-3.1	-2
O=C1CN(c2ccc(Cl)cc2)C2(CCCCC2)S1	-0.8	16
CN(C)C(=O)CN1C(=O)c2ccccc2S1(=O)=O	·	20
CCOC(=O)c1[nH]c2c(c1-c1ccccc1)C(=O)CC(c1cccs1)C2 (stereo not drawn)	·	9
COC(=O)c1ccc(NCC(=O)N2CC(C)CC(C)C2)cc1 (stereo not drawn)	-0.1	-21
Cc1ccc(-c2cc3c4c(C)n(Cc5ccc6c(c5)OCO6)c(C)c4c(C)nn3c2)o1	·	-9
Cc1ccc(NC(=O)C(=O)NCCN2CCN(S(=O)(=O)c3ccc(F)cc3)CC2)cc1Cl	-1.0	·
CSc1nc(C)nc(N/C=C(\C#N)S(=O)(=O)c2ccccc2Cl)n1	·	6
Cc1cccc(NC(=O)Nc2nnc(N3CCCCC3C)s2)c1C (stereo not drawn)	-2.0	5
CC(C)(C)c1cc(C(=O)CSc2nncn2-c2ccccc2)cc(C(C)(C)C)c1O	1.4	·
NC(=O)c1nnn(-c2cccc(C(F)(F)F)c2)c1-c1ccccc1	-1.7	·
CCOC(=O)c1c(C)[nH]c(C(=O)C(C)OC(=O)C2CC(=O)N(CCc3ccccc3)C2)c1C (stereo not drawn)	·	9
C=CCn1c(CNC(=O)c2cccs2)nnc1SCC(=O)c1ccc(Br)cc1	-0.7	7
O=C(OC1CCCCC1=O)c1ccc(-c2cccc(C(F)(F)F)c2)o1 (stereo not drawn)	·	3
C=CCn1c(CNC(=O)c2ccccc2)nnc1SCC(=O)N1CCN(c2ccccc2)CC1	0.0	14
c1cncc(CNCc2cccnc2)c1	0.2	0
Cc1cc(C)n(/N=C2/C(=O)Nc3ccc(Br)cc32)c(=O)c1C#N	·	0
CCOC(=O)c1ccc(COc2nc3ccccc3nc2-c2ccccc2NC(C)=O)o1	-1.6	8
O=C(Nc1ccccc1)OCc1ccc(-c2cc(C(F)(F)F)cc(C(F)(F)F)c2)o1	-0.6	·
Cc1ccc(N=Nc2c(N)n[nH]c2N)cc1	·	14
CC1=C(Cc2cc3ccc(=O)oc3cc2O)CC(C)(C)CC1	1.8	5
CN(C)CCNC(=O)c1ccccn1	-3.1	-18
Cc1c(N=c2scc(-c3ccc4c(c3)NC(=O)CO4)n2Cc2ccccc2)c(=O)n(-c2ccccc2)n1C	·	21
Cc1c(C(=O)NCCc2ccc(Cl)cc2)oc2ccc(S(=O)(=O)N3CCC(C)CC3)cc12	-0.5	8
COC(=O)/C=C1/Nc2ccccc2SC1=O	0.2	-17
